Methyltransferases – Primary Screen for Target Class Profiling of Small Molecule Inhibitors of Methyltransferases; purified enzyme, MTase-Glo SAH luminescence; active compounds read low; calls only at 40 µM; 25,000 tested, 3.9% active; active = -50% or lower on at least one of six enzymes; inconclusive = the cases between; inactive = as a rule above -30% on all six;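 note: enzymes were COMT GAMT GNMT HNMT NNMT and PNMT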
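Each enzyme was assayed with SAM and its substrate. SAH formation detected by MTase-Glo luminescence; single-point 40 uM screen[…].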
Calls only; i = inactive; ? = inconclusive; + = active, no number. % is set by controls: 0 for no effect and ±100 for the full control effect. An excerpt (hit frequency here may not be typical).

| molecule | Methyltransferases |
| --- | --- |
| CCc1cc2c(cc3n2CC(C)(C(=O)NC2CCC(C)CC2)N(CC(C)c2ccccc2)C3=O)s1 (stereo not drawn) | i |
| CC1(C)C2CC(OC3OC(COC4OCC(O)(CO)C4O)C(O)C(O)C3O)C1(C)CC2O (stereo not drawn) | i |
| CC(C)CC1NC(=O)C(C)NC(=O)C(CC(C)C)OC(=O)CCCNC1=O (stereo not drawn) | i |
| CCN(CC)Cc1cc(C2CC(=O)Nc3n[nH]c(C(=O)O)c32)ccc1OC (stereo not drawn) | i |
| Cc1ccccc1Cn1nc2n(CC(C)C)c(=O)c3ccc(C(=O)NC(C)C)cc3n2c1=O | i |
| CCC(C)NC(=O)c1ccc2c(=O)n(C)c3nnc(SCC(=O)Nc4ccc(C)cc4)n3c2c1 (stereo not drawn) | i |
| COc1ccc(CCN2C(=O)c3cc4ccccc4n3CC2(C)C(=O)NC2CCCCC2)cc1OC (stereo not drawn) | i |
| CC(C)NC(=O)C[C@@H]1C[C@H]2O[C@H](CNCc3ccccc3C(F)(F)F)[C@@H](O)[C@H]2O1 | i |
| C[C@@H]1O[C@@H](O[C@H]2[C@H](OC(=O)[C@]34CCC(C)(C)C[C@H]3C3=CCC5[C@@]6(C)C[C@@H](O)[C@@H](O[C@@H]7O[C@H](CO)[C@@H](O)[C@H](O)[C@H]7O)[C@@](C)(CO)C6[C@H](O)C[C@@]5(C)[C@]3(C)CC4)OC[C@H](O)[C@@H]2O)[C@H](O)[C@H](O[C@@H]2OC[C@](O)(CO)[C@H]2O)[C@H]1O[C@@H]1OC[C@@H](O)[C@H](O[C@H]2O[C@H](C)[C@@H](O)[C@H](O)[C@@H]2O)[C@H]1O (stereo partly drawn) | i |
| Cc1ccc(N2C(=O)c3ccc(-c4ccco4)n3CC2(C)C(=O)NCc2ccccc2)cc1 (stereo not drawn) | i |
| CC1CCC2C(C(=O)O)=CC3C(O)C(C)(C)CC123 (stereo not drawn) | i |
| Cc1ccc2c(c1)c1c3n2CCN(CC(O)CN2CCN(C(=O)c4ccco4)CC2)C3CCC1 (stereo not drawn) | i |
| CCOC(=O)c1cc2n(n1)CC(C)(C(=O)NC1CCCCCC1)N(c1ccc(C)c(C)c1)C2=O (stereo not drawn) | i |
| Cc1nc(N(C)C2CCCCC2)ncc1C(C)NC(=O)C1(CO)CC1 (stereo not drawn) | i |
| O=S(=O)(Nc1ccccn1)c1ccc(N=Cc2c(O)[nH]c3ccc4ncsc4c23)cc1 | i |
| COc1ccc(NS(=O)(=O)c2cc3[nH]c(=O)[nH]c3cc2Cl)cc1 | i |
| Nc1nc(NCc2ccccc2)c2[nH]cnc2n1 | ? |
| C=CC(C)(O)CC/C=C(\C)COC1O[C@H](CO)[C@@H](O)[C@H](O)[C@H]1O (stereo partly drawn) | + |
| Cc1ccc(Cn2c(=O)c3ccc(C(=O)NC(C)C)cc3n3c(=O)n(CC(=O)c4ccccc4)nc23)cc1 | i |
| COc1ccccc1NC(=O)CSc1nnc2n(CC(C)C)c(=O)c3ccc(Cl)cc3n12 | i |
| COc1cc(NC(=O)Cn2nc3n(Cc4ccc(C)cc4)c(=O)c4ccccc4n3c2=O)cc(OC)c1 | i |
| O=C(NCCN1CCOCC1)c1cc2c(Oc3ccc(NC(=O)C4(C(=O)Nc5ccc(F)cc5)CC4)cc3)ccnc2[nH]1 | i |
| C[C@@H]1CN(c2ccc(C(=O)N3CCC(N4CCOCC4)CC3)cn2)C[C@H](C)O1 | i |
| Cc1cc(C)cc(NC(=S)N[C@H]2CO[C@H]3[C@@H]2OC[C@H]3OC(=O)NC2CCCCC2)c1 | i |
| CC(=O)OC/C(=C/C(=O)O)CC[C@@H]1C(C=O)=CC[C@@H]2C(C)(C)CCC[C@@]12C | + |
| Cc1nnc(C(C)C)n1C1CC2CCC(C1)N2CCC(NC(=O)C1CCC(F)(F)CC1)c1ccccc1 (stereo not drawn) | ? |
| CC[C@@H]1C(=O)O[C@]23C=C[C@@H]4C(C(=O)OC)=CO[C@H](O[C@@H]12)[C@@H]43 | i |
| Cc1cnc(CC2CCN(S(=O)(=O)c3ccccc3)CC2)n1Cc1ccc(F)cc1 | i |
| COc1cccc(CN2C(=O)c3nc4ccccc4n3CC2(C)C(=O)NC2CCCCC2)c1OC (stereo not drawn) | i |
| O=S(=O)(c1ccccc1F)N1CC(c2nc(Cc3ccccc3)no2)C1 | i |
| NC(=O)[C@@H]1C[C@H](Oc2cccnc2)CN1C(=O)C1CCCCC1 | i |
| Cn1c(=O)c2ccc(C(=O)NC3CCCC3)cc2n2c(=O)n(CC(=O)c3cccc(Cl)c3)nc12 | i |
| COc1ccc(OC)c(CN2C(=O)c3cc4ccccc4n3CC2(C)C(=O)NCCC(C)C)c1 (stereo not drawn) | i |
| COCC(=O)Nc1ccc(-c2noc([C@@H]3CCCN3Cc3ncc[nH]3)n2)cn1 | i |
| CCCNC(=O)CCn1ccc2cc(S(=O)(=O)N3CCCC3)ccc21 | i |
| CC1(C)CC[C@]2(C(=O)O)CC[C@]3(C)C(=CCC4[C@@]5(C)C[C@@H](O)[C@H](O)[C@@](C)(CO)C5[C@H](O)C[C@]43C)[C@@H]2C1 (stereo partly drawn) | i |
| CCc1ccc(N2C(=O)c3cc4sccc4n3CC2(C)C(=O)NC2CCCC(C)C2C)cc1 (stereo not drawn) | i |
| Cn1cc(CN2CCN(C(c3ccccc3)c3ccccc3)CC2)cc1C#N | ? |
| COCC1CN(C(=O)Cn2c(=O)oc3ccccc32)CC12CCNCC2 (stereo not drawn) | i |
| C=C1CCC2[C@@](C)(C=O)CCC[C@]2(C)[C@H]1CC/C(C)=C/CO (stereo partly drawn) | ? |
| COc1ccccc1CNC(=O)C1(C)Cn2nc(-c3ccccc3)cc2C(=O)N1c1ccc(C)cc1Cl (stereo not drawn) | i |
| Cc1cc(C)cc(NS(=O)(=O)c2ccc3c(c2)NC(=O)CC(=O)N3)c1 | i |
| O=C(Cn1nc2n(CCc3ccccc3)c(=O)c3ccccc3n2c1=O)c1cccc(Cl)c1 | i |
| CC(C)C1CN(C(=O)CNC(=O)N(C)C)CCCN1Cc1ccc(F)cc1 (stereo not drawn) | i |
| CCOC(=O)c1cc2n(n1)CC(C)(C(=O)NCc1ccc(Cl)cc1)N(c1ccc(OCC)cc1)C2=O (stereo not drawn) | i |
| CCOCCCNc1nc2c(S(=O)(=O)c3ccc(Cl)cc3)nnn2c2ccccc12 | i |
| CC1(C(=O)NC2CCCCCCC2)Cn2c(ccc2-c2ccccc2)C(=O)N1Cc1cccs1 (stereo not drawn) | i |
| CC(CCc1ccccc1)N1C(=O)c2ccccc2CC1(C)C(=O)NC1CCCCCCC1 (stereo not drawn) | i |
| CC(C)CNCc1ccc(-c2ccccc2S(=O)(=O)N2CCCC2)cc1 | ? |
| O=C1NCCCCCN(S(=O)(=O)c2ccc3c(c2)OCCO3)[C@H]2CCC[C@@H]12 | i |
| C[C@@H]1C(=O)O[C@H](C)[C@H]1C[C@@H](O)[C@](C)(O)[C@H]1CC[C@@]2(O)C3=CC(=O)[C@@H]4C[C@@H](O)[C@@H](O)C[C@]4(C)C3CC[C@]12C (stereo partly drawn) | i |
| CN[C@H](C(=O)N[C@H](C(=O)N(C)[C@H](/C=C(\C)C(=O)O)C(C)C)C(C)(C)C)C(C)(C)c1ccccc1 | i |
| COc1ccc(N2CC3CCC(C2)N3CC2CCCC2)cc1 | i |
| O=C(Nc1ccc2ncnc(N3CCCC3)c2c1)c1ccc(Cl)s1 | i |
| CCC(C)NC(=O)c1ccc2c(=O)n(C(C)C)c3nn(CC(=O)c4ccc(F)cc4)c(=O)n3c2c1 (stereo not drawn) | i |
| Cc1ccc(NC(=O)[C@@H]2OCC(=O)N(C)[C@H]2c2ccccc2)cc1 | i |
| COC(=O)c1ncn2c1C(=O)N(c1cccc(C)c1C)C(C)(C(=O)NCc1ccccc1)C2 (stereo not drawn) | i |
| O=C(c1ccc2c(=O)nc3c(-c4ccccc4F)n[nH]n3c2c1)N1CCN(c2ccccn2)CC1 | i |
| Cc1cc(C(C)(C)C)cc(C)c1CC1=NCCN1 | i |
| Cc1nc(N=Nc2cc(S(=O)(=O)O)c3cc([N+](=O)[O-])cc(S(=O)(=O)O)c3c2)c(COP(=O)(O)O)c(C=O)c1O | + |

The listing continues:
| molecule | Methyltransferases |
| --- | --- |
| O=C1NCCOCCN(C(=O)Cc2cccc(F)c2)[C@H]2CCC[C@@H]12 | i |
| O=C(C1CC(=O)N(C2CC2)C1)N1CCC(Oc2cccnc2)CC1 (stereo not drawn) | i |
| COc1cccc(OC)c1-c1cc(C(=O)N[C@@H](CC(C)C)C(=O)O)nn1-c1ccnc2cc(Cl)ccc12 | i |
| O=C1[C@H]2CN(Cc3cccc(Cl)c3F)C[C@H]2C(=O)N1Cc1ccc2c(c1)OCO2 | i |
| OCc1cc(CC2(NCc3ccccc3O)COC2)no1 | i |
| COc1ccc(CN2C(=O)c3ccc(-c4ccccc4)n3CC2(C)C(=O)NC2CCCCCC2)cc1 (stereo not drawn) | i |
| c1cc(-c2nc(C3CCOC3)nn2C2CCCCC2)co1 (stereo not drawn) | i |
| CCCCCCN(CCC(=O)NCCc1ccccc1)C(=O)c1cc(C)oc1C | i |
| CCCn1c(=O)c2cc(Cl)ccc2n2c(=O)n(Cc3cccc(Cl)c3)nc12 | i |
| C[C@@]12CCC(=O)C[C@@H]1C[C@H](OC(=O)Nc1ccccc1)CC2 | i |
| O=C(Nc1ccccc1C(F)(F)F)N1Cc2c(sc3c2CCCC3)-n2cccc2C1c1ccccc1 (stereo not drawn) | i |
| COCCCN1C(=O)c2c(NC(C)=O)c3cc(OC)ccc3n2CC1(C)C(=O)NC1CCCCCC1 (stereo not drawn) | i |
| O=C(CCn1cncn1)N1CCC(c2nccn2Cc2cccnc2)CC1 | i |
| Cc1cc2nc3n(c(=O)c2n1CC(=O)NC1CCc2ccccc21)CCCCC3 (stereo not drawn) | i |
| Cc1ccc(NC(=O)CSc2nnc3n(Cc4ccc(F)cc4)c(=O)c4ccccc4n23)cc1C | i |
| Cc1ccc(C)c(NC(=O)Cn2c(=O)oc3cc(S(=O)(=O)N4CCCC4)ccc32)c1 | i |
| CNC(=O)[C@@H]1CN(C(=O)c2cc(C)n(CCOC)c2C)C[C@H]1COC | i |
| O=C(N1CCCCCC1)C1(CCO)CCN(c2ncccn2)C1 (stereo not drawn) | i |
| CC(C)CCNC(=O)C1(C)Cn2c(cc3ccccc32)C(=O)N1CCCc1ccccc1 (stereo not drawn) | i |
| Cc1ccccc1CN1C(=O)c2ccc(-c3ccco3)n2CC1(C)C(=O)NC1CCCCCC1 (stereo not drawn) | i |

A stretch from further up, for reference:
| molecule | Methyltransferases |
| --- | --- |
| O=C1NCCOCCN(C(=O)Cc2cccc(F)c2)[C@H]2CCC[C@@H]12 | i |
| O=C(C1CC(=O)N(C2CC2)C1)N1CCC(Oc2cccnc2)CC1 (stereo not drawn) | i |
| COc1cccc(OC)c1-c1cc(C(=O)N[C@@H](CC(C)C)C(=O)O)nn1-c1ccnc2cc(Cl)ccc12 | i |
| O=C1[C@H]2CN(Cc3cccc(Cl)c3F)C[C@H]2C(=O)N1Cc1ccc2c(c1)OCO2 | i |

Further structures:
| molecule | Methyltransferases |
| --- | --- |
| Cc1cccc(N2C(=O)c3cc4occc4n3CC2(C)C(=O)NC2CCCCC2C)c1C (stereo not drawn) | i |
| CC(C)CCNC(=O)C1c2c(n(C)c3ccccc23)SCC(=O)N1Cc1ccccc1Cl (stereo not drawn) | i |
| Cc1cnc(C(=O)N2CCC3(CC2)C(=O)N(c2cccc(F)c2)C3c2ccccc2)cn1 (stereo not drawn) | i |
| CCC(C)NC(=O)c1ccc2c(=O)n(C(C)C)c3nn(Cc4ccc(F)cc4)c(=O)n3c2c1 (stereo not drawn) | i |
| CCN1C(=O)c2c(C(=O)NCc3cc(Br)ccc3OC)ncn2CC1(C)C(=O)NC1CCCC1 (stereo not drawn) | i |
| COCCCN1C(=O)CSc2c(c(C)nn2-c2ccccc2)C1C(=O)NCc1ccccc1OC (stereo not drawn) | i |
| O=c1c2ccccc2n2c(-c3ccc(Br)cc3)nnc2n1Cc1ccc(F)cc1 | i |
| CCOC(=O)c1cccc(N2C(=O)Cn3cccc3C2C(=O)NC2CCCCC2C)c1 (stereo not drawn) | i |
| CC(=O)N1CCn2c(nnc2-c2ccccc2)C1 | i |
| O=C(O)[C@H]1NCCC[C@H]1C(=O)O | i |
| CC(C)OCCCn1c(=O)c2ccccc2n2c(=O)n(Cc3ccccc3F)nc12 | i |
| CCCCNC(=O)c1ccc2c(=O)nc3c(-c4ccc(Cl)cc4)n[nH]n3c2c1 | i |
| O=C(CCCc1nnc2n3nc(-c4ccccc4)nc3c3ccccc3n12)NCc1ccc(F)cc1 | i |
| CCOc1ccccc1CNC(=O)C(CC)n1ccc2cc(S(=O)(=O)N3CCCCC3)ccc21 (stereo not drawn) | i |
| Cc1ccc(CN2CC[C@H](c3nc4ccc(C)cc4[nH]3)C2)cc1 | i |
| CCOC(=O)CCNc1cc(N2CCc3ccccc3CC2)nc(-c2cccnc2)n1 | ? |
| CCc1cccc(N2C(=O)c3cc(C(=O)OC)nn3CC2(C)C(=O)NC2CCCCCC2)c1 (stereo not drawn) | i |
| COc1ccc(C(=O)N[C@@H]2CCC[C@@H]2C(=O)NCc2ccc(C)o2)cn1 | i |
| CC(C)CC(=O)OC[C@H]1O[C@@](COC(=O)CC(C)C)(O[C@H]2O[C@H](CO)[C@@H](O)[C@H](O)[C@H]2OC(=O)CC(C)C)[C@@H](OC(=O)CC(C)C)[C@@H]1O | i |

Three entries out of the list, ordered by heavy-atom count, smallest number first:
| molecule | Methyltransferases |
| --- | --- |
| CC(C)OCCCn1c(=O)c2ccccc2n2c(=O)n(Cc3ccccc3F)nc12 | i |
| CCOC(=O)c1cccc(N2C(=O)Cn3cccc3C2C(=O)NC2CCCCC2C)c1 (stereo not drawn) | i |
| CCC(C)NC(=O)c1ccc2c(=O)n(C(C)C)c3nn(Cc4ccc(F)cc4)c(=O)n3c2c1 (stereo not drawn) | i |

From PubChem
